# Assay outcomes deposited in PubChem BioAssay by SRMLSC.
# H5N1 CPE – MDCK cell protection from H5N1 avian flu | cytopathic effect, luminescence, 72 h; stronger effect = higher value; no value below 0 was filed and about half of the inactive calls have no number; reference of the scale not given here | inhibition, % at 50 µM | 96,000 tested, 0.07% active | AID 740; in the data active = inhibition above about 25%
# The depositor's hits bear a star; i = inactive. An excerpt, so the mix of outcomes need not match the whole.
SMILES,H5N1 CPE
Cc1ncc(N=Nc2ccc(F)cc2)c(-c2ccc(Cl)cc2)n1,0.5
CSc1nc(N(C)NC(=O)c2cccc(C)c2)c2ccccc2n1,i
COCC(=O)Nc1cc(C(=O)Nc2ccccc2C)ccc1Cl,i
CCC(Sc1ccccn1)C(=O)Nc1nnc(C)s1 (stereo not drawn),1.3
Cc1ccc(C2(C)NC(=O)N(CC(=O)NCCC3=CCCCC3)C2=O)cc1 (stereo not drawn),i
CC(=O)Nc1cccc(-c2nnc(SCc3ccccc3C#N)n2C)c1,1.6
COc1ccc(Cc2nnc(NC(=O)Cc3cccs3)s2)cc1OC,0.1
COC(=O)c1ccccc1NC(=O)CSc1nnc(CNS(=O)(=O)c2ccc(C)cc2)n1C,0.7
COc1cc2nc3c4ccccc4n(CC#N)c3nc2cc1OC,0.1
COc1ccc(S(=O)(=O)Cc2ccc(C(=O)N3CCc4ccccc4C3)o2)cc1,2.4
Cc1cccc(-n2ncc3c(N4CCCc5ccccc54)ncnc32)c1,i
Cc1ccc(Cn2c(NS(=O)(=O)c3ccccc3)nc3ccccc32)cc1,i
COC(=O)C1=C(C)N(CC(C)C)C(=O)/C1=C\c1cccs1,i
c1ccc(C(c2ccccc2)N2CCN(c3ccc4ccccc4n3)CC2)cc1,1.4
CC(=O)Nc1nc(C2COc3ccccc3O2)cs1 (stereo not drawn),1.1

# Quoted from the results shown (3 entries):
SMILES,H5N1 CPE
Cc1ncc(N=Nc2ccc(F)cc2)c(-c2ccc(Cl)cc2)n1,0.5
CSc1nc(N(C)NC(=O)c2cccc(C)c2)c2ccccc2n1,i
COCC(=O)Nc1cc(C(=O)Nc2ccccc2C)ccc1Cl,i

# Remaining list, next part.
SMILES,H5N1 CPE
Cc1csc2nc(CSc3nc4ccccc4o3)c(Br)n12,2.9
CCCCC(=O)N1CCCC(C(=O)OCC)C1 (stereo not drawn),i
CCN(CC)c1ccc2c(C)c(CN3CCOCC3)c(=O)oc2c1,0.1
CC1CCCC(C)N1C(=O)Cn1c(SCC(=O)NCc2ccc3c(c2)OCO3)nc2ccccc21 (stereo not drawn),i
Cc1ccc(S(=O)(=O)Cc2nc3ccccc3c(=O)[nH]2)cc1,1.0
CCOC(=O)c1cc(=O)n2nc(-c3ccccc3F)nc2s1,0.6
CCCN1C(=O)c2ccc(C(=O)NCc3ccco3)cc2C1=O,i
CCOC(=O)c1c(C)nc2sc3c(=O)n(-c4ccc(OC)cc4)cnc3c2c1-c1ccc(OC)cc1,i
CCOC(=O)c1nnn(-c2nc(N3CCCC3)nc(N3CCCC3)n2)c1-c1ccccc1,0.7
CCCc1cc(=O)n2[nH]c(NCc3ccccc3F)nc2n1,i
O=C(Nc1cccc(Cl)c1)c1ccc(-n2cncn2)c([N+](=O)[O-])c1,i
CCN(c1ccccc1)S(=O)(=O)c1ccc2[nH]cc(C(=O)NCCOC)c(=O)c2c1,0.7
CCOC(=O)CSc1nc2sc(C)c(C)c2c(=O)[nH]1,i
O=C(OCC(=O)N1CCOCC1)c1ccc[nH]c1=O,0.8
O=C1c2ccccc2C2NC(=O)C3(CCCCC3)N12 (stereo not drawn),i
NC(=O)CSc1nnc(Cc2cccs2)n1C1CCCCC1,0.5
Cc1ccsc1C(=O)OCC(=O)NCC1CCCO1 (stereo not drawn),0.3
Clc1cccc(Cl)c1Cn1cnc2c(N3CCCCCC3)ncnc21,i
CCOc1cc(CNCCCN2CCOCC2)ccc1OCC(=O)Nc1cccc2ccccc12,i
CCCCC(=O)NC(c1ccc(OC)c(OC)c1)c1c(O)ccc2ccccc12 (stereo not drawn),1.0
O=C(NCc1ccco1)c1ccccc1NS(=O)(=O)c1cccs1,0.7
O=C(CCC1CCCC1)Nc1ccon1,0.8
O=C1CC(N2CCN(Cc3ccc4c(c3)OCO4)CC2)C(=O)N1CCc1ccccc1 (stereo not drawn),i
NC(=O)CSc1nnc2n(-c3ccccc3)c(=O)c3c4c(sc3n12)CCCCC4,0.8
FC(F)(F)c1cnc(-c2cnc3c(-c4ccc(Cl)cc4)cnn3c2)c(Cl)c1,0.2
Cn1c(CCN2CCCCC2)nc2cc([N+](=O)[O-])ccc21,0.8
CCCOc1ccc(OCC(=O)c2[nH]c(C)c(C(C)=O)c2C)cc1,i
CC(=O)OC(C(=O)NCc1ccco1)c1ccncc1 (stereo not drawn),0.1
Cc1ccc(C)c(NC(=O)CSc2nnc([C@@H]3CCCN3C(=O)OC(C)(C)C)o2)c1,i
CCN1CCN(C(=O)c2ccc3c(=O)n(CCC4=CCCCC4)c(=O)[nH]c3c2)CC1,5.8
CCn1cc(C(=O)NCC2CCCO2)c(=O)c2cc(F)c(N3CCN(C)CC3)cc21 (stereo not drawn),0.1
CC(C)NC(=O)CCCc1cn(C)c2ccccc12,i
Cc1ccc(S(=O)(=O)c2nc(-c3cccs3)oc2SCC(N)=O)cc1,1.2
COc1ccc(C2c3c(oc4ccccc4c3=O)C(=O)N2c2ccc(C)cn2)cc1OC (stereo not drawn),i
O=C1C(Cl)=C(NCCc2ccccc2)C(=O)N1CCc1ccccc1,i
CCC1CCCCN1CCCNC(=O)c1cn(CC(C)C)c(=O)c2cc(OC)c(OC)cc12 (stereo not drawn),0.8
CCN1C(=O)/C(=C/c2ccc(C)s2)NC1=S,i
CN1CCN(c2cc(-c3ccccc3)nc3cc(-c4ccc(F)cc4)nn23)CC1,i
COC(=O)CN1CCN(C(c2ccccc2)c2ccccc2)CC1,i
Cc1cccc(N(CC(=O)NC2CCCC2)C(=O)CS(=O)CC(=O)Nc2ccc3c(c2)OCO3)c1 (stereo not drawn),0.1
CC1CCCN(C(=O)COC(=O)c2ccc[nH]c2=O)C1 (stereo not drawn),i
Nc1cc(-c2ccc(Cl)cc2)nn1S(=O)(=O)c1ccccc1,2.5
CC(=O)c1cccc(NC(=O)CN(c2ccccc2)S(C)(=O)=O)c1,i
Cc1cccc(NC(=S)NCc2cccn2C)c1,0.3
O=C(CSc1nnnn1-c1ccc(O)cc1)Nc1ccc(N2CCOCC2)c(Cl)c1,0.1
Cn1c(C(=O)N2CCC(C(=O)N3CCOCC3)CC2)cc2sccc21,1.3
CCOC(=O)c1cnn(-c2nc(-c3ccc(F)cc3)cs2)c1C(F)(F)F,i
O=C(O)c1nn(-c2ccc(Cl)cc2)ccc1=O,i
CCn1c(SCc2ccc(C(=O)Nc3nccs3)cc2)nnc1-c1ccc(NC(C)=O)cc1,0.7
CC(C)N1CC=C2C(C#N)=C(N)C(C#N)(C#N)[C@H](c3ccoc3)[C@H]2C1,4.3
CCCn1nnnc1-c1cccc(Cl)c1,0.4
Cc1ccc(C)c(N2CCN(C(=O)C3CCN(c4nc(C)cc(C)n4)CC3)CC2)c1,i
Cc1cc(C)n(-c2cc(Oc3ccccc3)ncn2)n1,i
O=C(Nc1cccc(-c2nc3ccccc3[nH]2)c1)c1ccco1,i
CCOC(=O)c1ccc(CC2S/C(=C(\C#N)C(C)=O)NC2=O)cc1 (stereo not drawn),i
Clc1ccc2c(NNc3ccccc3Cl)ccnc2c1,4.9
C=CCN(C#N)c1nc(OC)nc(N2CCCC2)n1,0.5
CCn1c(SCC(=O)N2CCCCC2)nc(O)cc1=O,1.6
CCN(CCNC(=O)CC1Oc2ccccc2NC1=O)c1ccccc1 (stereo not drawn),1.0
CC(=O)c1cccc(NC(=O)C2CC(=O)N(Cc3ccccc3)C2)c1 (stereo not drawn),i
# Next compounds follow:
SMILES,H5N1 CPE
Cn1c(=O)[nH]c(=O)c2c1nc(N1CCN(c3cccc(Cl)c3)CC1)n2CCCc1ccccc1,0.9
COC(=O)CSc1nnc(-c2ccco2)n1Cc1ccco1,0.7
O=C(CC(=O)c1ccccc1)Nc1ccc2c(c1)OCCO2,i
CC(C)OC(=O)c1c(NC(=O)c2cnn3c2NC(c2ccccc2)CC3C(F)(F)F)sc2c1CCCC2 (stereo not drawn),i
Cc1cc(NCCN)nc2ccccc12,i
Cc1cc(C)n(-c2nc3c(c(=O)[nH]c(=O)n3C)n2Cc2ccccc2)n1,i
COc1ccccc1N1CCN(C(=O)c2ccncc2)CC1,0.6
O=C(Nc1ccc2c(c1)OCCO2)c1cncc(Br)c1,i
CCCCCC(/C=N/Nc1ccc(S(=O)(=O)N2CCOCC2)cc1[N+](=O)[O-])=C\c1ccccc1,i
Cc1cc(C)n(Cc2n[nH]c(=S)n2Cc2ccccc2)n1,0.8
O=C(C1CCN(S(=O)(=O)N2CCC3(CC2)OCCO3)CC1)N1CCc2ccccc2C1,0.2
COC(=O)c1cc(=O)nc2sccn12,0.3
CCN(CC)S(=O)(=O)c1ccc(C)c(C)c1,0.9
CCOC(=O)c1[nH]c2ccc(OC)cc2c1NC(=O)N1CCOCC1,1.7
COc1cccc(C2=NOC(C(=O)NCc3ccco3)C2)c1 (stereo not drawn),i

# Reformatted as tab-separated lines: part of the list above.
molecule	H5N1 CPE
COC(=O)CN1CCN(C(c2ccccc2)c2ccccc2)CC1	i
Cc1cccc(N(CC(=O)NC2CCCC2)C(=O)CS(=O)CC(=O)Nc2ccc3c(c2)OCO3)c1 (stereo not drawn)	0.1
CC1CCCN(C(=O)COC(=O)c2ccc[nH]c2=O)C1 (stereo not drawn)	i
Nc1cc(-c2ccc(Cl)cc2)nn1S(=O)(=O)c1ccccc1	2.5
CC(=O)c1cccc(NC(=O)CN(c2ccccc2)S(C)(=O)=O)c1	i

# Compounds from the list above that contain bromine (2):
SMILES,H5N1 CPE
Cc1csc2nc(CSc3nc4ccccc4o3)c(Br)n12,2.9
O=C(Nc1ccc2c(c1)OCCO2)c1cncc(Br)c1,i

# Additional compounds follow:
SMILES,H5N1 CPE
c1ccc(-n2nnnc2SCCCSc2nc3ccccc3s2)cc1,i
CCCSc1nc2c(cnn2-c2ccc(C)c(C)c2)c(=O)[nH]1,2.8
Cc1cccc(C)c1NC(=O)COc1cccc(/C=N/NC(=O)C(=O)NCc2ccccc2)c1,i
CC1(C)Cc2c(C#N)c(SCCOc3ccccc3)nc(N3CCOCC3)c2CO1,0.6
Cc1nn(Cc2c(F)c(F)c(F)c(F)c2F)c(C)c1NC(=O)c1c(-c2ccccc2)nn(-c2ccccc2)c1C,1.4
CCCC12CN3CC(C)(CN(C1)C31C(=O)Nc3ccc(C)cc31)C2=O (stereo not drawn),1.4
CCOC(=O)N1CCN(CC(O)COc2ccccc2C(C)C)CC1 (stereo not drawn),i
COc1ccccc1C(=O)NCC(=O)Nc1ccccc1,i
CN(c1ccc(C(=O)Nc2ccccc2C(=O)N2CCCC2)cc1)S(C)(=O)=O,0.2
CCCCn1c(NCc2ccccc2O)nc2ccccc21,2.1
CCOc1ccc(C(=O)CN2CCN(S(=O)(=O)c3ccc(F)cc3)CC2)cc1,3.5
COc1ccc(CCNC2=NCCS2)cc1,i
O=C(CSc1ncn[nH]1)N(C1CCCCC1)C1CCCCC1,1.3
O=C(O)c1ccc(S(=O)(=O)Nc2ccc(F)c(Cl)c2)cc1,i
CC(OC(=O)c1cc2sccc2n1C)C(=O)NCCc1ccccc1 (stereo not drawn),i

# Taken from above:
# In H5N1 CPE, `CCCSc1nc2c(cnn2-c2ccc(C)c(C)c2)c(=O)[nH]1` reads 2.8
# In H5N1 CPE, `CC1(C)Cc2c(C#N)c(SCCOc3ccccc3)nc(N3CCOCC3)c2CO1` reads 0.6
# In H5N1 CPE, `CCCCn1c(NCc2ccccc2O)nc2ccccc21` reads 2.1
# In H5N1 CPE, `Cc1nn(Cc2c(F)c(F)c(F)c(F)c2F)c(C)c1NC(=O)c1c(-c2ccccc2)nn(-c2ccccc2)c1C` reads 1.4

# The listing continues:
SMILES,H5N1 CPE
CCc1c(C)nc(N)nc1N1N=C1SCC(N)=O,0.4
O=C(c1cc2ccccc2oc1=O)N1CCCC1,0.5
Cc1ccccc1S(=O)(=O)Cc1ccc(C(=O)N2CCN(c3cccc(C)c3C)CC2)o1,0.1
O=C(COc1ccc(F)cc1)NCC1CCCO1 (stereo not drawn),i
CCOC(=O)C(=O)Nc1ccc(F)cc1,0.4
CCOC(=O)c1c(-c2ccccc2)nnn1-c1nc(OCC)nc(N2CCCCC2)n1,1.2
Cc1ccc(NC(=O)c2cc(N3C(=O)C4CC=CCC4C3=O)ccc2N2CCOCC2)cc1Cl (stereo not drawn),4.3
COc1ccc2c(c1)[nH]c1c(=O)n(CCCN3CCOCC3)cnc12,i
O=C(Cn1c(=O)c2c(ncn2Cc2ccccc2)n(Cc2ccccc2)c1=O)N1CCc2ccccc21,0.5
O=C(O)C1CCCN1S(=O)(=O)c1ccc2c(c1)CCC2 (stereo not drawn),0.6
Cc1[nH]c2ccccc2c1SCC(=O)N1CCN(c2ccccc2)CC1,4.3
COC(=O)C(O)(c1ccc(N(C)C(=O)OC(C)C)cc1)C(F)(F)F (stereo not drawn),0.5
CCOc1ccc(CNC(=O)C2CCCN(S(C)(=O)=O)C2)cc1OC (stereo not drawn),i
CCCCn1c(-c2nn(C)cc2Cl)n[nH]c1=S,0.5
CCOC(=O)C1C(=O)CC(C)(O)C(C(=O)OCC)C1/C=C/c1ccccc1 (stereo not drawn),i
CCc1ccc(N/C(SCc2cccc(F)c2)=C(/C#N)C(=O)NCc2ccco2)cc1,i
Cc1cc(C)c2c(-n3cccc3)c(C(=O)NNS(=O)(=O)c3ccccc3)sc2n1,1.3
COc1ccccc1Nc1ncccc1C(=O)O,i
Cc1n[nH]c(=S)n1/N=C/c1ccc(OCc2ccc(Cl)cc2)cc1,i
CCN(C(=O)CSc1nncs1)c1c(N)n(Cc2ccccc2)c(=O)[nH]c1=O,i
CCN(CCCNC(=O)C1CCC(=O)N1C1CCCC1)c1cccc(C)c1 (stereo not drawn),0.3
O=C(c1ccc2c(c1)[nH]c(=S)n1c3ccccc3nc21)N1CCN(c2ncccn2)CC1,i
Nc1ccc(S(=O)(=O)N2CCCC2)cc1,i
O=C(O)CSCc1cnn(-c2ccccc2)c1-n1cccc1,i
Cc1cc(C(=O)COC(=O)c2n[nH]c3ccccc23)c(C)n1CC1CCCO1 (stereo not drawn),i
COc1ccc(C(C(=O)NC2CCCCC2)N(C(=O)Cc2c[nH]c3ccccc23)c2ccc(NC(C)=O)cc2)cc1OC (stereo not drawn),i
COc1ccc(C(=O)c2nc3c(n2O)CCCCC3)cc1,i
